# Vaccinia inh: Vaccinia orthopox stage-specific inhibition; Vaccinia-infected cells, mCherry/Venus stage reporter fluorescence; hits give low values; some inactives read as strong as hits; 89,000 compounds, 0.01% hits; activity change (mCherry), % (concentration not given with the values); AID 1053133;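 active means mCherry past -33% and 40 or more points under the early reporter, replicates agreeing; inconclusive means past -33% without that gap or agreement; tested in A549 cells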;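 further: scaled between vehicle wells and reference inhibitor wells; 23 nL library stock went into each well; one replicate is shown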
# Vaccinia inh Venus: recorded beside Vaccinia inh, whose call it bears; activity change (Venus), %; measured here: Venus reporter, other viral stage;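 negative = less Venus signal; first of two replicates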
# * = called active by the depositor; ? = inconclusive; · = not tested or not shown.
# A first look:
SMILES,Vaccinia inh,Vaccinia inh Venus
CC(C)NC(=O)N(C)C[C@@H]1OCCCC[C@H](C)Oc2ccc(NC(=O)CCCN(C)C)cc2C(=O)N([C@H](C)CO)C[C@@H]1C,22,15
CO[C@@H]1CN(C)C(=O)c2cc(NC(=O)Nc3cccc(F)c3)ccc2OC[C@H](C)NC[C@@H]1C,-10,1
COc1ccc(-c2cn(CC[C@H]3CC[C@@H](NC(=O)Cc4ccccn4)[C@H](CO)O3)nn2)cc1,13,-3
Cc1noc(C)c1NC(=O)N[C@H]1CC[C@H](CCNC(=O)C2CCOCC2)O[C@H]1CO,1,-8

# The listing (from the top)
SMILES,Vaccinia inh,Vaccinia inh Venus
CC(C)NC(=O)N(C)C[C@@H]1OCCCC[C@H](C)Oc2ccc(NC(=O)CCCN(C)C)cc2C(=O)N([C@H](C)CO)C[C@@H]1C,22,15
CO[C@@H]1CN(C)C(=O)c2cc(NC(=O)Nc3cccc(F)c3)ccc2OC[C@H](C)NC[C@@H]1C,-10,1
COc1ccc(-c2cn(CC[C@H]3CC[C@@H](NC(=O)Cc4ccccn4)[C@H](CO)O3)nn2)cc1,13,-3
Cc1noc(C)c1NC(=O)N[C@H]1CC[C@H](CCNC(=O)C2CCOCC2)O[C@H]1CO,1,-8
Cc1ccc(-c2ccc([C@H]3[C@@H](CO)N4C(=O)CN(C(=O)Nc5cccc(F)c5)C[C@H]34)cc2)cc1,-19,-19
CNC[C@@H]1Oc2ccc(N)cc2CC(=O)N([C@H](C)CO)C[C@H]1C,-1,5
COc1ccccc1C(=O)Nc1ccc2c(c1)OC[C@@H](C)N(C)C[C@H](C)[C@H](OC)CN(C)C2=O,2,4
Cc1noc(C)c1S(=O)(=O)Nc1ccc2c(c1)C(=O)N([C@H](C)CO)C[C@H](C)[C@H](CN(C)C(=O)Nc1ccc3c(c1)OCO3)O2,4,5
O=C(NCC1CC1)[C@@H]1[C@@H](CO)[C@@H]2Cn3c(cccc3=O)[C@@H]2N1C(=O)CC1CC1,13,20
O=C(c1ccccn1)N1CC[C@H]2[C@H](CO)Nc3ccc(-c4ccccc4)cc3[C@H]21,-2,0
COC(=O)[C@@H]1[C@@H](CO)[C@@H]2Cn3c(ccc(-c4cccc(C(=O)N(C)C)c4)c3=O)[C@H]1N2C(=O)NC(C)C,3,-6
O=C(CCN1CCCCC1)N[C@H]1CC[C@@H](CCNS(=O)(=O)c2ccc(Cl)cc2)O[C@@H]1CO,10,10
CNC[C@@H]1OCCCC[C@@H](C)Oc2ccc(N(C)C)cc2C(=O)N([C@@H](C)CO)C[C@H]1C,7,11
COC(=O)[C@H]1[C@H](CO)[C@H]2Cn3c(ccc(-c4ccccc4F)c3=O)[C@@H]1N2Cc1ccccc1,4,8
C[C@H]1CCCCO[C@H](CN(C)Cc2ccc(C(=O)O)cc2)[C@@H](C)CN([C@@H](C)CO)C(=O)c2cc(NS(=O)(=O)c3cccs3)ccc2O1,34,22
C[C@@H]1CN([C@@H](C)CO)C(=O)c2c(c3ccccc3n2C)-c2ccccc2CO[C@@H]1CN(C)S(=O)(=O)c1ccccc1,-4,5
C[C@H]1CN([C@@H](C)CO)S(=O)(=O)c2ccc(C#Cc3ccccc3)cc2O[C@H]1CN(C)C,?,·
CC(=O)N(C)C[C@@H]1Oc2ncc(-c3cncnc3)cc2C(=O)N([C@@H](C)CO)C[C@@H]1C,11,6
O=C(Nc1ccc(F)cc1)Nc1ccc2c(c1)[C@H]1C[C@@H](CC(=O)N3CCOCC3)O[C@@H](CO)[C@H]1O2,8,5
COc1ccc(NC(=O)N[C@H]2CC[C@H](CCn3cc(-c4ccc(F)cc4)nn3)O[C@@H]2CO)cc1,-2,1
CCCNC(=O)N[C@H]1CC[C@@H](CC(=O)N2CCN(C)CC2)O[C@H]1CO,11,9
O=C(Cc1ccccn1)NCC[C@H]1CC[C@H](NS(=O)(=O)c2ccccc2)[C@@H](CO)O1,11,6
C[C@@H]1CN([C@H](C)CO)C(=O)CCCn2nncc2CO[C@@H]1CN(C)Cc1ccccc1C(=O)O,4,-7
O=C(C[C@H]1C=C[C@H](NC(=O)Nc2ccccc2F)[C@@H](CO)O1)NCc1ccc(-c2ccccc2)cc1,7,6
CN1C(=O)c2cc(NC(=O)c3ccc(F)cc3)ccc2OC[C@@H]2O[C@@H](CC(=O)NCC3CCCCC3)CC[C@@H]21,-27,-20
C[C@@H]1CCCCO[C@H](CN(C)S(=O)(=O)c2cccs2)[C@@H](C)CN([C@@H](C)CO)C(=O)c2cc(NC(=O)CCCN(C)C)ccc2O1,-13,-14
CCC(=O)Nc1ccc2c(c1)C(=O)N(C)C[C@@H](OC)[C@@H](C)CN(C(=O)Cc1cccnc1)[C@@H](C)CO2,15,15
O=C(N[C@H]1CC[C@@H](CC(=O)N2CCc3ccccc3C2)O[C@H]1CO)C1CCC1,-1,1
C[C@@H]1CCCCO[C@@H](CN(C)S(=O)(=O)c2cn(C)cn2)[C@@H](C)CN([C@@H](C)CO)C(=O)c2cc(NC(=O)Nc3cccc4ccccc34)ccc2O1,20,18
C[C@H](CO)N1C[C@H](C)[C@@H](CN(C)C(=O)C2CC2)Oc2cc(-c3cccc(C#N)c3)ccc2S1(=O)=O,-4,-14
CCC(=O)Nc1ccc2c(c1)C(=O)N(C)C[C@@H](OC)[C@@H](C)CN(CC1CCCCC1)[C@H](C)CO2,3,3
C[C@H](CO)N1C[C@H](C)[C@@H](CN(C)CC2CCCCC2)OCCCC[C@H](C)Oc2ccc(NC(=O)Nc3ccc(F)cc3)cc2C1=O,?,·
C[C@H]1CN([C@@H](C)CO)C(=O)c2cc(C3=CCCC3)cnc2O[C@@H]1CN(C)C(=O)CN1CCOCC1,17,18
O=C1c2ccccc2[C@@]2(Cc3ccccc3N(CCN3CCOCC3)C2=O)[C@H](c2ccc(CO)cc2)N1Cc1ccccc1Cl,19,20
C[C@@H]1CN([C@@H](C)CO)S(=O)(=O)c2ccc(Br)cc2O[C@@H]1CN(C)C(=O)NC1CCCCC1,2,-3
CCCNC(=O)N(C)C[C@@H]1Oc2ncc(C3=CCCCC3)cc2C(=O)N([C@H](C)CO)C[C@@H]1C,-8,-9
O=C(C[C@H]1C=C[C@@H](NC(=O)c2ccc(F)cc2)[C@H](CO)O1)NCc1ccncn1,-14,3
O=C(C[C@H]1C=C[C@H](NS(=O)(=O)c2ccc(F)cc2)[C@@H](CO)O1)N1CCN(c2ccccc2)CC1,-6,-2
C[C@@H]1CN([C@@H](C)CO)C(=O)c2cc(NC(=O)NC3CCCCC3)ccc2O[C@@H]1CN(C)Cc1ccncc1,-3,-2
C[C@@H]1CN([C@H](C)CO)C(=O)c2cccc(NS(=O)(=O)c3ccccc3)c2O[C@H]1CN(C)Cc1ccncc1,11,15
CCCNC(=O)[C@@H]1[C@@H](CO)[C@@H]2Cn3c(ccc(-c4ccccc4OC)c3=O)[C@@H]2N1CC,-1,1
C[C@@H]1CN([C@@H](C)CO)C(=O)c2cccc(NC(=O)Nc3ccc(C(F)(F)F)cc3)c2O[C@H]1CN(C)C(=O)Nc1ccc(F)cc1,?,·
N#C[C@H]1[C@H](c2ccc(-c3ccccc3F)cc2)[C@@H](CO)N1C(=O)Cc1ccccc1,?,·
COc1ccc(CN(C)C[C@@H]2Oc3ccc(NC(=O)Nc4ccccc4)cc3C(=O)N([C@@H](C)CO)C[C@H]2C)cc1,-15,-5
COCCNC(=O)C[C@H]1CC[C@@H]2[C@H](COc3ccc(NC(=O)Nc4cccc(F)c4)cc3C(=O)N2C)O1,9,-5
CCCNC(=O)[C@@H]1[C@@H](CO)[C@@H]2Cn3c(ccc(-c4cncnc4)c3=O)[C@H]1N2C(=O)Nc1ccccc1,5,11
O=C(C[C@H]1CC[C@H]2[C@@H](COC[C@H](O)CN2C(=O)Nc2ccc(Cl)cc2)O1)NCC1CC1,-19,-11
COCCN(C[C@@H]1[C@H](c2ccccc2)[C@@H](CO)N1C(C)=O)C(=O)c1ccncc1,4,3
C[C@H]1CN([C@@H](C)CO)C(=O)Cc2cc(NC(=O)c3ccncc3)ccc2O[C@H]1CN(C)CC1CC1,6,-3
COc1ccc(S(=O)(=O)Nc2ccc3c(c2)C(=O)N([C@H](C)CO)C[C@H](C)[C@H](CN(C)C(=O)NC(C)C)OCCCC[C@H](C)O3)cc1,21,17
CO[C@H]1CN(C)C(=O)c2cccc(C#N)c2OC[C@@H]2O[C@H](CC[C@H]2OC)CCN(C)C(=O)[C@@H]1C,1,-2
O=C(c1ccccc1F)N1C[C@@H]2[C@H](c3ccccc31)[C@H](CO)N2C(=O)c1cccnc1,2,8
C[C@@H]1CN([C@@H](C)CO)C(=O)c2cccc(NC(=O)C3CCCCC3)c2O[C@@H]1CN(C)C(=O)Nc1ccc2c(c1)OCO2,5,-4
CCCNC(=O)N(C)C[C@@H]1Oc2cc(C#CC(C)(C)O)ccc2S(=O)(=O)N([C@@H](C)CO)C[C@@H]1C,6,1
C[C@H](CO)N1C[C@H](C)[C@@H](CN(C)Cc2ccc(C(=O)O)cc2)Oc2ccc(NS(=O)(=O)c3ccc(Cl)cc3)cc2CC1=O,11,5
COc1ccccc1S(=O)(=O)N[C@H]1C=C[C@@H](CC(=O)NCc2cc(F)cc(F)c2)O[C@@H]1CO,-11,-9
CC=Cc1ccc2n(c1=O)C[C@H]1[C@H](CO)[C@@H](C(=O)NCCC)[C@@H]2N1CC1CC1 (mixture of isomers),22,13
C[C@H](O)C#Cc1ccc2c(c1)O[C@H](CN(C)C(=O)c1ccccc1)[C@H](C)CN([C@@H](C)CO)S2(=O)=O,-1,-10
COc1ccccc1C#Cc1ccc([C@H]2[C@@H](CO)N(C(=O)C3CC3)[C@H]2C#N)cc1,6,0
COc1ccccc1NC(=O)N(C)C[C@H]1OCc2ccccc2-c2ccccc2C(=O)N([C@@H](C)CO)C[C@H]1C,22,13

# Continuation:
SMILES,Vaccinia inh,Vaccinia inh Venus
O=C1CC[C@@H]2c3[nH]c4ccc(F)cc4c3CCN12,11,25
CN1C(=O)c2cc(NC(=O)c3cccc(F)c3)ccc2OC[C@@H]2O[C@H](CC(=O)NCC3CC3)CC[C@H]21,2,9
COc1ccc(NC(=O)Nc2ccc3c(c2)CC(=O)N([C@H](C)CO)C[C@H](C)[C@H](CN(C)Cc2ccc(C(=O)Nc4ccccc4N)cc2)O3)cc1,-12,-14
C[C@@H]1CN([C@H](C)CO)C(=O)c2cccc(NS(=O)(=O)c3cn(C)cn3)c2O[C@@H]1CN(C)S(C)(=O)=O,4,1
C[C@@H](NC(=O)C[C@H]1CC[C@H]2[C@@H](COC[C@@H](O)CN2C(=O)Nc2ccccc2)O1)c1ccccc1,4,1
C[C@H]1CN([C@@H](C)CO)C(=O)c2cc(-c3ccc(C#N)cc3)cnc2O[C@H]1CN(C)Cc1ccccn1,18,9
O=C(C[C@H]1C=C[C@@H](NS(=O)(=O)c2ccccc2)[C@H](CO)O1)N1CCc2ccccc2C1,8,6
C[C@@H]1CN([C@H](C)CO)C(=O)c2cccc(NS(=O)(=O)c3cn(C)cn3)c2O[C@@H]1CN(C)Cc1ccccc1,8,10
C[C@@H]1CCCCO[C@@H](CN(C)C)[C@H](C)CN([C@@H](C)CO)C(=O)c2cc(NC(=O)Nc3ccc4c(c3)OCO4)ccc2O1,9,7
O=C(C[C@@H]1C[C@@H]2c3cc(NC(=O)CC4CC4)ccc3O[C@@H]2[C@H](CO)O1)NCc1cc(F)ccc1F,6,9
C[C@H](CO)N1C[C@H](C)[C@H](CN(C)Cc2ccc(-c3ccccc3)cc2)Oc2ccc(NC(=O)Nc3cccc4ccccc34)cc2C1=O,-10,-1
COCC#Cc1ccc2c(c1)O[C@@H](CN(C)S(=O)(=O)c1ccc(F)cc1)[C@@H](C)CN([C@@H](C)CO)S2(=O)=O,-4,5
O=C(N[C@@H]1CC[C@@H](CCNS(=O)(=O)c2ccc(F)cc2)O[C@H]1CO)c1ccccn1,-2,1
Cc1cc(C(=O)Nc2cccc3c2O[C@@H](CN(C)Cc2ccc4c(c2)OCO4)[C@H](C)CN([C@@H](C)CO)C3=O)n(C)n1,-17,-16
C[C@@H]1CN([C@@H](C)CO)C(=O)c2cc(C3=CCCC3)cnc2O[C@@H]1CN(C)C(=O)C1CCC1,5,6
O=C(Nc1cccc(F)c1)N1C[C@@H]2[C@H](c3ccccc31)[C@H](CO)N2C(=O)Cc1ccccn1,-28,-16
CCC(=O)N1CC2(C1)[C@@H](c1ccccc1)[C@@H](CO)N2Cc1ccccc1F,2,13

# Complete entries, quoted from the list:
# Cc1cc(C(=O)Nc2cccc3c2O[C@@H](CN(C)Cc2ccc4c(c2)OCO4)[C@H](C)CN([C@@H](C)CO)C3=O)n(C)n1 reads Vaccinia inh: -17; Vaccinia inh Venus: -16
# CN1C(=O)c2cc(NC(=O)c3cccc(F)c3)ccc2OC[C@@H]2O[C@H](CC(=O)NCC3CC3)CC[C@H]21 reads Vaccinia inh: 2; Vaccinia inh Venus: 9

# Among those listed so far, five contain a cyano group.
SMILES,Vaccinia inh,Vaccinia inh Venus
C[C@H](CO)N1C[C@H](C)[C@@H](CN(C)C(=O)C2CC2)Oc2cc(-c3cccc(C#N)c3)ccc2S1(=O)=O,-4,-14
N#C[C@H]1[C@H](c2ccc(-c3ccccc3F)cc2)[C@@H](CO)N1C(=O)Cc1ccccc1,?,·
CO[C@H]1CN(C)C(=O)c2cccc(C#N)c2OC[C@@H]2O[C@H](CC[C@H]2OC)CCN(C)C(=O)[C@@H]1C,1,-2
COc1ccccc1C#Cc1ccc([C@H]2[C@@H](CO)N(C(=O)C3CC3)[C@H]2C#N)cc1,6,0
C[C@H]1CN([C@@H](C)CO)C(=O)c2cc(-c3ccc(C#N)cc3)cnc2O[C@H]1CN(C)Cc1ccccn1,18,9

# Screening results from PubChem BioAssay.

# The list is partial, so the mix of outcomes need not match the whole.
